# Compound activity as filed in PubChem.
# Mtb H37Rv = Mycobacterium tuberculosis H37Rv growth inhibition, putative kinase inhibitor library, confirmatory dose response (AID 2842); hit rate 5.2% among 24,000; inhibition, % at 10 µg/mL; hits with a dose series show IC90 in µg/mL; M. tuberculosis H37Rv growth inhibition; higher % means a stronger effect; some inactives read as strong as hits;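 active means confirmed in a dose series; about a fifth of its hits are not listed in these tables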;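 further: bacteria incubated one week before Alamar blue readout; 0% = bacteria only wells and 100% = bacteria with high antibiotic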
# Active calls of the source: *.
SMILES,Mtb H37Rv
COc1cc(NC(=O)CSc2nccn(-c3cccc(F)c3)c2=O)cc(OC)c1,-0.8%
O=C(Cc1ccccc1)Nc1ncc(S(=O)(=O)c2ccc([N+](=O)[O-])cc2)s1,-23.8%
Cc1ccccc1-c1nc(C(N)=O)c2[nH]c(=O)n(-c3ccc(F)cc3)c2n1,-7.3%
CCn1cc(SCC(=O)Nc2cc(C(F)(F)F)ccc2Cl)c2ccccc21,1.2%
CCN1CCN(CC(=O)NC2CCCC2)C(=O)C1=O,-4.8%
Cc1ccc(NC(=O)CC2Nc3ccccc3NC2=O)c(C)c1 (stereo not drawn),-8.6%
O=C(CCCS(=O)(=O)c1ccccc1)Nc1nnc(-c2cccs2)o1,3.9%
COc1ccc(NS(=O)(=O)c2cc3c4c(c2)C(C)C(=O)N4CCC3)cc1Cl (stereo not drawn),4.2%
O=C(NCCc1nc2ccccc2n1Cc1ccccc1)c1ccccc1,33.9%
O=C(Nc1cccc(C(F)(F)F)c1)NC1CC(=O)N(c2cccc(F)c2)C1 (stereo not drawn),8.52µg/mL*
O=C(Nc1c(C(=O)Nc2cccc(F)c2)oc2ccccc12)c1ccco1,6.8%
Cc1nc2ccccc2n1C(=O)c1ccccc1C(=O)O,-5.6%
COc1ccc(C(=O)NCCc2cc3cc(C)c(C)cc3[nH]c2=O)cc1OC,-0.2%
CC(=O)N1CCN(C(=O)C(=O)Nc2c3c(nn2-c2ccc(F)cc2)CSC3)CC1,-12.2%
O=C(CN1C(=O)c2ccccc2C1=O)OCc1ccc(F)cc1,-7.2%
Cc1ccc(-n2c(=O)[nH]c3c(C(N)=O)nc(-c4ccccc4O)nc32)cc1C,-19.9%
CCOc1ccccc1NC(=O)c1oc2ccccc2c1NC(=O)COc1ccccc1,10.5%
CSc1nc2ccc3nc(NC(=O)c4ccccc4Br)sc3c2s1,7.2%
CCCCC(=O)Nc1nnc(-c2ccccn2)o1,14.6%
COc1ccc(Nc2nc3c(F)cccc3s2)cc1,27.9%
COc1ccc(-c2nnc3c4cc(OC)c(OC)cc4n(Cc4ccccc4F)cc2-3)cc1,34.5%
Cc1ccccc1-c1nnc(NC(=O)c2ccc(N3C(=O)CCC3=O)cc2)s1,11.7%
O=C(CSC1=NC2(CCCCC2)N=C1c1ccccc1)Nc1ccc2c(c1)OCCO2,-3.9%
Cn1c(=O)c2c(SCC(=O)NCc3ccc4c(c3)OCO4)nc(-c3cccs3)nc2n(C)c1=O,6.2%
O=C(Nc1nnc(-c2ccc(Br)cc2)o1)c1ccc(S(=O)(=O)N2CCOCC2)cc1,5.28µg/mL*
COc1ccc(N2CC(NC(=O)Nc3ccncc3)CC2=O)cc1OC (stereo not drawn),-3.5%
Cc1[nH]c2ccccc2c1C(Nc1ccccn1)c1ccc(OC(F)F)cc1 (stereo not drawn),-7.0%
CCS(=O)(=O)c1ccc(CC(=O)Nc2nnc(-c3cc(C)ccc3C)o2)cc1,1.4%
CCOC(=O)c1nn(-c2ccc(OC)cc2)c(=O)c2c(NC(=O)c3cc(OCC)c(OCC)c(OCC)c3)scc12,3.7%
CCC(Sc1ccccc1)C(=O)Nc1nnc(-c2ccccc2OC)s1 (stereo not drawn),-1.9%
Cc1ccc(C(=O)Nc2c(N)nc(SCC(=O)Nc3cc(C(F)(F)F)ccc3Cl)[nH]c2=O)cc1,-16.3%
N#C/C(=C(\O)c1ccc2c(c1)OCCO2)c1nc2ccccc2s1,37.7µg/mL*
Cc1ccc2nc(NC(=O)CSc3nc(-c4ccco4)nc4c3c(=O)n(C)c(=O)n4C)sc2c1,-2.1%
CCOc1cccc(NC(=O)c2ccc(S(=O)(=O)N3CCCCCC3)cc2)c1,-10.8%
CC(=O)c1ccc(NC(=O)CSc2nc(-c3ccccc3C)ns2)cc1,21.0%
Nc1ncnc(NNC(=O)CNC(=O)COc2ccc(Cl)cc2)c1[N+](=O)[O-],9.3%
Cc1ccc(C(=O)Nc2nnc(-c3cc(C)ccc3C)o2)cc1,41.5µg/mL*
O=C(CSc1ccc2nnc(-c3ccc(Cl)cc3)n2n1)Nc1ccc2c(c1)OCCO2,-3.3%
O=C1Cc2cc(NC(=O)c3ccccc3F)ccc2N1,-5.6%
CCOc1ccc(-n2nnc3c(=O)n(CC(=O)Nc4cc(C)on4)cnc32)cc1,9.1%
Cc1ccc(C)c(N2CCN(C(=O)CCCCCn3c(=O)[nH]c4ccsc4c3=O)CC2)c1,10.9µg/mL*
Cn1c(/C(C#N)=C(\O)c2ccc([N+](=O)[O-])s2)nc2ccccc21,20.5%
Cc1ccc(S(=O)(=O)Nc2ccccc2C(=O)Nc2nc(-c3ccc(Br)cc3)cs2)cc1,8.3%
COc1ccc(C)cc1NC(=O)C(=O)c1c[nH]c2ccccc12,36.7%
CCCNC(=O)CSc1nc2c([nH]c3ccccc32)c(=O)n1-c1ccc(OC)c(OC)c1,3.0%
O=c1[nH]cc(S(=O)(=O)N2CCCCCC2)c(=O)[nH]1,10.1%
Cc1cccc2sc(NNC(=O)c3cc(-c4cccs4)nc4ccccc34)nc12,22.8µg/mL*
Cc1csc2ncc(C(=O)Nc3ccc(Cl)c(Cl)c3)c(=O)n12,-3.8%
CCOC(=O)c1ccc2nc(Nc3nc4ccc(OC)cc4s3)sc2c1,29µg/mL*
CCOC(=O)CSCC(=O)Nc1nnc(-c2ccccc2OC)s1,1.0%
O=C(Nc1c(C(=O)Nc2ccc([N+](=O)[O-])cc2)oc2ccccc12)c1ccccc1F,1.8%
COc1ccc(C(=O)Nc2nc(-c3cc(C)ccc3C)cs2)cc1,7.1%
O=C(CSc1nc2c(c(=O)n1-c1ccc(Br)cc1)SCC2)Nc1cccc(F)c1,8.5%
O=C(Nc1nc(-c2ccncc2)cs1)c1ccc2ncsc2c1,-1.1%
COc1cccc(N2CC(NC(=O)c3ccccc3OC)CC2=O)c1 (stereo not drawn),-3.5%
O=C(CC1Sc2ccc(C(F)(F)F)cc2NC1=O)Nc1cccc(C(F)(F)F)c1 (stereo not drawn),-1.6%
COc1ccccc1/C=C1\Oc2cc(OCC(N)=O)ccc2C1=O,-5.5%
O=C(O)CCCN1C(=O)c2cccc3c(O)ccc(c23)C1=O,-0.8%
O=c1[nH]c(SCc2ccccc2Cl)nc2c1cnn2-c1ccccc1,9.4%
Cc1csc2ncc(C(=O)Nc3ccc(C(C)C)cc3)c(=O)n12,-5.9%
# Next results follow.
SMILES,Mtb H37Rv
CS(=O)(=O)c1ccccc1-c1nnc(NC(=O)c2cccc(N3C(=O)CCC3=O)c2)o1,1.4%
O=C(Cc1cccc2ccccc12)Nc1nnc(-c2cccs2)o1,40.1µg/mL*
CCCC(=O)NCCc1cc2c(OC)ccc(OC)c2[nH]c1=O,13.8%
COc1ccc(C2NC(=O)NC(C)=C2C(=O)OC(C)C)cc1 (stereo not drawn),-5.9%
O=C(CSc1nnc2ccc(-c3cccnc3)nn12)N1CCOCC1,0.9%
CCCc1nc(SCC(=O)Nc2ccc(F)cc2)c2c(=O)n(C)c(=O)n(C)c2n1,8.9%
O=C(Nc1cnccn1)c1ccc(S(=O)(=O)N2CCCCCC2)cc1,-14.7%
CCOc1ccc2nc(NC(=O)c3cccc(Cl)c3)sc2c1,81.5%
CCOc1cc(-c2nnc(NC(=O)c3ccc(C#N)cc3)o2)cc(OCC)c1OCC,2.7%
CCC(C)NC(=O)c1cnc2n(c1=O)CCS2 (stereo not drawn),-1.6%
O=C(CSC1=Nc2cccnc2Nc2ccccc21)Nc1cccc(F)c1,31.9%
CC(C)CC(=O)Nc1c(C(=O)Nc2ccccc2)oc2ccccc12,-3.0%
COc1ccc(CC2SC(=Nc3ccccc3)NC2=O)cc1 (stereo not drawn),35.4%
Cc1ccc(C)c2[nH]c(=O)c(CCNC(=O)C(=O)c3c[nH]c4ccccc34)cc12,7.1%
Cc1ccc(S(=O)(=O)n2nc(OC(=O)c3ccccc3C)cc2N)cc1,-5.6%
CCS(=O)(=O)c1cccc(C(=O)Nc2nnc(C3=COCCO3)o2)c1,-10.4%
O=C(CCc1ccccc1)Nc1nnc(-c2ccc(Br)cc2)s1,-7.2%
N#C/C(=C\c1cn(Cc2ccccc2)c2ccccc12)C(=O)Nc1sc2c(c1C(N)=O)CCCC2,0.8%
Cc1cc(NC(=O)C(C)(C)Oc2ccc(Cl)cc2)nc2c1c(=O)oc1ccccc12,1.7%
CCOc1ccc2c(c1)c1nnc(-c3ccc(OC)cc3)c-1cn2Cc1cccc(C)c1,20.7µg/mL*
COc1ccc(N2CC(NC(=O)Nc3ccon3)CC2=O)cc1 (stereo not drawn),-7.3%
O=c1[nH]cc(S(=O)(=O)NCc2ccc3c(c2)OCO3)c(=O)[nH]1,2.0%
Cn1c(=O)c2[nH]c(SCC(=O)c3ccc4c(c3)OCCO4)nc2n(C)c1=O,-0.9%
O=C(Nc1nnc(SCc2ccccc2)s1)C1CC(=O)N(c2ccccc2)C1 (stereo not drawn),17.4%
O=C(CN1N=NC2C(=O)N(c3ccc(F)c(F)c3)C(=O)C21)Nc1ccc(F)cc1F (stereo not drawn),2.6%
COc1cc2ccccc2cc1C(=O)Nc1nc2ccc3nc(C)sc3c2s1,-2.8%
CC(C)Oc1ccc(C(=O)Nc2nc3ccc(S(C)(=O)=O)cc3s2)cc1,-9.9%
Nc1nc(SCCN2CCOCC2)[nH]c(=O)c1NC(=O)c1ccccc1F,-8.7%
Cc1cc(NC(=O)CSc2nncn2C)no1,0.4%
O=C(Nc1cc2c3c(c1)CCN3C(=O)CC2)C(=O)NC1CCCC1,43.8%
COc1ccc2sc(Nc3nc(-c4cc(Cl)sc4Cl)cs3)nc2c1,6.4%
COc1ccc(CCNc2nnc(Cc3ccc(F)cc3)c(=O)[nH]2)cc1OC,-5.4%
CC(C)(C)CC(=O)Nc1c(C(=O)Nc2ccccc2F)oc2ccccc12,2.6%
COc1cccc2s/c(=N/C(=S)NC(=O)c3ccc(C)cc3)n(C)c12,14.3%
Cc1cccc(Cn2cnc3sc(C(N)=O)c(C)c3c2=O)c1,9.6%
Cc1cc(C)c2oc(-c3ccccc3)cc(=NCCC(=O)O)c2c1,10.0%
COc1ccccc1CNS(=O)(=O)c1cc2c3c(c1)CCC(=O)N3CCC2,-6.0%
O=C(CSc1ccc2nnc(-c3ccccn3)n2n1)Nc1ccc2c(c1)OCO2,6.6%
CCOCCN1N=C(C(C)(C)C)Cn2c1nc1c2c(=O)n(C)c(=O)n1C,5.4%
COc1ccc(-c2nnc(Nc3nc4ccc(F)cc4s3)o2)c(OC)c1,0.2%

# Grouped by structure, the compounds so far containing a nitro group on carbon (four)
SMILES,Mtb H37Rv
O=C(Cc1ccccc1)Nc1ncc(S(=O)(=O)c2ccc([N+](=O)[O-])cc2)s1,-23.8%
Nc1ncnc(NNC(=O)CNC(=O)COc2ccc(Cl)cc2)c1[N+](=O)[O-],9.3%
Cn1c(/C(C#N)=C(\O)c2ccc([N+](=O)[O-])s2)nc2ccccc21,20.5%
O=C(Nc1c(C(=O)Nc2ccc([N+](=O)[O-])cc2)oc2ccccc12)c1ccccc1F,1.8%

# New compounds follow:
SMILES,Mtb H37Rv
O=C(CSc1nc(-c2ccccc2)nc2c1Cc1ccccc1O2)Nc1ccc(F)c(Cl)c1,6.3%
CCOc1ccc(NC(=O)c2cnc3scc(C)n3c2=O)cc1,-7.7%
COc1ccc2cc(CCNC(=O)CCC3CCCCC3)c(=O)[nH]c2c1,1.4%
O=C(CCSc1ccccc1)Nc1nc(-c2ccc3c(c2)CCCC3)cs1,12.2%
COc1cccc(C(=O)N2N=C(c3ccco3)CC2c2ccco2)c1 (stereo not drawn),14.0%
CC1=C(C(=O)OC2CCCCCCC2)C(c2ccccc2Cl)NC(=O)N1 (stereo not drawn),4.3%
COc1ccc(OC)c(NC(=O)c2cnc3sccn3c2=O)c1,-2.0%
COC(=O)c1ccc(CSc2ncnc3c2nnn3Cc2ccc(F)cc2)o1,20.4%
Cc1ccccc1C(=O)Nc1nnc(-c2ccc(F)cc2)s1,5.6%
Cc1n[nH]c(C)c1S(=O)(=O)NCCOc1ccc(-c2cccs2)nn1,0.1%
O=C(NC1NC(c2ccccc2)=CS1)c1ccc([N+](=O)[O-])s1 (stereo not drawn),3.42µg/mL*
COc1ccc(NC(=O)CSc2nc3c(c(=O)n2-c2ccc(Cl)cc2)SCC3)cc1,6.7%
NC(=O)c1oc2ccccc2c1NC(=O)c1cc2c(ccc3ccccc32)oc1=O,-0.1%
O=C(CSc1nc(=O)[nH]c2c1CCC2)c1ccccc1,-5.4%
O=C(Nc1nc(-c2cc([N+](=O)[O-])cs2)cs1)c1ccc(Cl)s1,39.7%
Cc1cccc(N=C2NC(=O)/C(=C/c3ccc(O)c(O)c3)S2)c1C,1.7%
O=C(CC1CCS(=O)(=O)C1)Nc1ccc2c(c1)OCCO2 (stereo not drawn),-17.9%
O=C(N=Nc1c(O)[nH]c2ccc(Br)cc12)c1cc(-c2cccc3ccccc23)n[nH]1,82.2%
O=C(Nc1cc2c3c(c1)CCN3C(=O)CC2)C(=O)Nc1ccccc1Cl,19.3%
CCCc1[nH]nc2c1C(C1CCCCC1)C(C#N)=C(N)O2 (stereo not drawn),2.4%

# 7 compounds picked at random from those above, as already listed:
SMILES,Mtb H37Rv
Cc1n[nH]c(C)c1S(=O)(=O)NCCOc1ccc(-c2cccs2)nn1,0.1%
O=C(CC1CCS(=O)(=O)C1)Nc1ccc2c(c1)OCCO2 (stereo not drawn),-17.9%
COc1cccc(C(=O)N2N=C(c3ccco3)CC2c2ccco2)c1 (stereo not drawn),14.0%
COC(=O)c1ccc(CSc2ncnc3c2nnn3Cc2ccc(F)cc2)o1,20.4%
O=C(NC1NC(c2ccccc2)=CS1)c1ccc([N+](=O)[O-])s1 (stereo not drawn),3.42µg/mL*
CCCc1[nH]nc2c1C(C1CCCCC1)C(C#N)=C(N)O2 (stereo not drawn),2.4%
O=C(Nc1nc(-c2cc([N+](=O)[O-])cs2)cs1)c1ccc(Cl)s1,39.7%

# New compounds follow:
SMILES,Mtb H37Rv
O=C(COc1ccc2c3c(c(=O)oc2c1)CCCC3)OC1CCCCC1,9.71µg/mL*
O=C(Nc1nc2ccc(Br)cc2s1)c1ccc(N2C(=O)CCC2=O)cc1,12.6%
Cc1cc(S(=O)(=O)Nc2cccnc2)ccc1F,-9.2%
CCS(=O)(=O)c1ccc(CC(=O)Nc2nnc(-c3ccncc3)o2)cc1,-17.1%
N#C/C(=C(/O)c1cc(Cl)cc(Cl)c1)c1nc2ccccc2[nH]1,-1.6%

# An excerpt; count on the stated rates, not on these rows.
